Beta apoptosis: blocks beta cell apoptosis | 300,000 tested, 0.8% active | protection from apoptosis, % (test concentration not listed) | INS-1E cytokine-induced death, ATP luminescence, 48 h; percent of positive-control rescue, neutral wells zero;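 active means all replicates at 75% or more, or half of them and the mean; inconclusive means half reach 75% but not the mean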;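 further: 0% = cytokine-treated negative control wells and 100% = positive control rescue; higher means more ATP so stronger rescue from cytokine killing; wells of about 40 µL received 100 nL stock; the first replicate is given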
A1 inh: inhibitors of the anti-apoptotic protein A1, read as caspase activation. MEF A1-2A-BIM cells, Caspase-Glo 3/7 luminescence, 3 h; percent of clofoctol response, vehicle zero. caspase activation, % (no concentration beside the values). 330,000 tested, 0.066% active. AID 2462;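 active means over half of replicate activation scores above 10%, or exactly half above 10 with the replicate mean above 10; inconclusive means replicate mean below 10 yet half the replicates above 10; inactive means over half of replicates below 10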;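 further: wells of about 30 µL received 50 nL stock; many hits fall short of the cut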
Beta2AR agonist: agonists of human beta-2 adrenergic receptor inducing internalization. Am2.2-beta2AR cells, FAP receptor internalization, flow cytometry; reference of the scale not given here. response, % (no concentration beside the values). 340,000 tested, 0.43% active. AID 504454;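 active means response above a set limit, near 3 SD of response in nonfluorescent compounds, cut at about 42% in these data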;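 further: stock transfer was 100 nL into about 11 µL; a reference agonist was the positive control; negative values mostly stem from fluorescent compounds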
Target sequence (P07550 whole entry, looked up): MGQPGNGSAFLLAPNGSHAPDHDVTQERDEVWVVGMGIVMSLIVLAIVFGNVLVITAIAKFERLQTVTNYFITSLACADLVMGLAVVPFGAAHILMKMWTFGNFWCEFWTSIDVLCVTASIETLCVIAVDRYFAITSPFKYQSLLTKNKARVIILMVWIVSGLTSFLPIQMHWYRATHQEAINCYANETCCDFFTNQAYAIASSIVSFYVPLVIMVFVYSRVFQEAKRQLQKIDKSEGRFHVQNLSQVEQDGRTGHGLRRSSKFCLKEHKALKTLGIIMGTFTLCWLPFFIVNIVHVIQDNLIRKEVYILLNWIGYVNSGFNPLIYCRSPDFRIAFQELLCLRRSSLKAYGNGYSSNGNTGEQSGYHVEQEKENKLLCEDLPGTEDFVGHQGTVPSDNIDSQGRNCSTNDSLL
ALR H2O2 inh: human ALR oxidase inhibition via reduced H2O2. AID 485317. purified ALR, DTT oxidation, H2O2 HRP-luminol luminescence. 290,000 tested, 3.8% active. inhibition, % (concentration not given with the values);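 active means mean and each replicate at 75% or more; inconclusive means only one of the two met; inactive means neither met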;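 further: stock transfer was 7.5 nL into about 7.5 µL; 0% = neutral wells and 100% = wells with inactivated enzyme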
Target sequence (P55789 whole entry, looked up): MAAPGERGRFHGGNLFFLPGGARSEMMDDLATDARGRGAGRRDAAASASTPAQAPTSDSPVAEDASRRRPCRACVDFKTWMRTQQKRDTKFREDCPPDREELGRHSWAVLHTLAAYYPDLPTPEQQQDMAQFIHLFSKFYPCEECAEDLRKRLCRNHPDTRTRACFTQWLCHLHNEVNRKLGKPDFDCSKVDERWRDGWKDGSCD
LANA-H2B inh: blocks KSHV LANA binding to histone H2A/H2B; Q9QR71; cell-free LANA-H2A/H2B peptide, fluorescence polarization; inhibition, % (test concentration not listed); 320,000 tested, 0.6% active; AID 2629; in the data active means inhibition mostly above about 10%, no sharp cut-off; inactive means mostly below about 6.7%;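 further: stock transfer was 7.5 nL into about 10 µL; 0% = median of vehicle wells and 100% = median of positive control wells; one replicate is shown; the record names a cut of 25% in any replicate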
T cruzi inh: T. cruzi replication inhibition. T. cruzi beta-gal in NIH3T3, luminescence, 90 h. inhibition, % (concentration not given with the values). 300,000 tested, 1.4% active. AID 1885;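 active means mean inhibition across valid replicates above about 55%, limit read from the data; inconclusive means mean below that limit but half or more replicates reach it; inactive means mean below it, under half of replicates reach it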;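 further: signal also drops with host cell toxicity which is not excluded here; 0% = plate median of DMSO wells and 100% = zero luminescence signal; higher percent means less beta-gal luminescence so fewer parasites; stock transfer was 50 nL into about 50 µL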
Calb FLC: C. albicans growth modulation with fluconazole; 300,000 tested, 0.57% active; growth inhibition, % (no concentration beside the values); C. albicans CaCi-2 (fluconazole-resistant clinical isolate) + fluconazole, Alamar Blue growth, 48 h; AID 1979;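 active means most replicates above 75%; inconclusive means exactly half above 75%; inactive means most below 75%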;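 further: all wells also contain fluconazole at 8 µg/ml as a sub-toxic cotreatment; 0% = median of DMSO wells and 100% = median of geldanamycin control wells; wells of about 8 µL received 7.5 nL stock; the first replicate is given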
Ecoli rRNA inh: inhibits bacterial ribosomal RNA function over humanized ribosomes; E. coli WT GFP vs humanized-ribosome RFP mutants, fluorescence, 24 h; active compounds read low; DMSO median 0, no signal -100; GFP signal change (wild-type ribosome), % (test concentration not listed); 350,000 tested, 1.6% active;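 active means significant combined selectivity score with lowered wild-type GFP, culture density cut under 30%, mutant RFP and density less affected; inactive means any of these conditions unmet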; further: one replicate is shown; some compounds called inactive have numbers as strong as hits
Ecoli rRNA inh OD600: also measured in Ecoli rRNA inh; calls as there; OD600 change, %; measured here: OD600 growth;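 optical density of the mix in the first replicate; 0 = DMSO median and -100 = no signal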
Ecoli rRNA inh RFP: further read-out of Ecoli rRNA inh, marked with its call; RFP signal change, %; measured here: RFP humanized mutant strains;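 first replicate; 0 = DMSO median and -100 = no signal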
An asterisk follows results filed as active; ? = inconclusive; nt = not tested or not shown; & = joins results of further samples. Not all compounds are listed (hit frequency here may not be typical).

SMILES	Beta apoptosis	A1 inh	Beta2AR agonist	ALR H2O2 inh	LANA-H2B inh	T cruzi inh	Calb FLC	Ecoli rRNA inh	Ecoli rRNA inh OD600	Ecoli rRNA inh RFP
C[C@H]1CN([C@@H](C)CO)C(=O)c2cccc(NC(=O)C3CC3)c2O[C@H]1CN(C)Cc1ccncc1	-3	0.3	-6	-1	-1.7	nt	nt	3&9	5&5	-4.1&-0.6
CCOc1cc(CNCCc2ccc(S(N)(=O)=O)cc2)ccc1OCC(=O)NC1CCCCC1	nt	0.8	7	nt	1.4	34	5	nt	nt	nt
O=C(NCCCN1CCCC1=O)c1ccccc1NS(=O)(=O)c1ccc(F)cc1	-4	1.0	-2	3	-2.5	-9	-18	nt	nt	nt
O=C(NCCCn1ccnc1)c1ccc(Cl)c(Cl)c1	4	-0.1	-1	-12	-5.9	17	0	4	7	0.7
O=C(Nc1nnc(COc2ccc(Cl)cc2)s1)c1ccc([N+](=O)[O-])cc1	-3	0.4	-3	-3	2.9	1	2	nt	nt	nt
O=C(Cc1c(F)cccc1Cl)OCN1C(=O)c2ccccc2C1=O	0	-0.5	4	5	-2.6	-11	6	1	2	3.1
O=C(OCn1nnc2ccccc2c1=O)c1cccs1	-3	0.1	-16	3	2.8	-7	0	-5	-11	-0.8
Cc1oc2c(C)c3oc(=O)c(CCC(=O)NCCN4CCOCC4)c(C)c3cc2c1C	4	-0.1	1	0	14*	4	-4	nt	nt	nt
Cc1ccc(CSc2nnc(-c3ccc(S(=O)(=O)N4CCCC4)cc3)o2)cc1	0	0.8	-2	6	-0.8	0	0	nt	nt	nt
O=C(c1cccc(C(F)(F)F)c1)N1CCOc2ccccc21	-2	0.3	-15	17	3.7	9	-11	5	2	2.6
O=C(Nc1cccc([N+](=O)[O-])c1)c1ccc(-c2ccccc2)cc1	0	0.2	6	5	-0.8	-5	3	8	6	1.7
Cc1ccc(NC(=O)CSc2nnc(CNC(=O)c3ccco3)n2C)c(C)c1	nt	-1.1	10	-6	0.1	4	-5	1	5	-0.1
O=C(Nc1ccccn1)C1CCN(c2ncnc3c2nc2n3CCCCC2)CC1	-8	-0.6	-9	-3	-5.2	-16	-1	-6	-3	0.1
O=C(c1cc(N2C(=O)C3C4CCC(C4)C3C2=O)ccc1Cl)N1CCN(c2ccccc2F)CC1 (stereo unspecified)	3	-0.7	-4	-5	-1.1	6	3	nt	nt	nt
Cc1cccc(Nc2n[nH]c(C)c2[N+](=O)[O-])c1	-1	-0.5	64*	nt	nt	-1	-5	nt	nt	nt
COc1ccc(S(=O)(=O)N2CCCCC2)cc1NC(=O)CCOc1cc(C)ccc1C	0	0.3	11	-2	-1.5	nt	nt	3	13	0.8
CN(CC(=O)Nc1ccc(F)c(F)c1F)C(=O)C1=NN(c2ccccc2)C(=O)CC1	-4	1.3	0	-2	0.0	nt	nt	8	13	0.5
COc1cc(/C=C2\SC(=S)N(CCC(=O)Nc3cccc(O)c3)C2=O)cc(OC)c1OC	-1	0.0	31	-1	15	7	1	2	14	1.0
O=C(COC(=O)/C(=C/c1cccs1)c1cccs1)NCc1ccccc1Cl	-5	0.7	-5	nt	-7.9	1	-1	nt	nt	nt
Cc1ccc(Cn2nc(-c3ccccc3)nc2-c2ccccc2)cc1	3	-3.0	-10	-3	-0.8	34	-15	nt	nt	nt

Single values from the list.
In A1 inh, O=C(c1cc(N2C(=O)C3C4CCC(C4)C3C2=O)ccc1Cl)N1CCN(c2ccccc2F)CC1 (stereo unspecified) has the entry -0.7
In A1 inh, O=C(COC(=O)/C(=C/c1cccs1)c1cccs1)NCc1ccccc1Cl has the entry 0.7
In Ecoli rRNA inh RFP, CN(CC(=O)Nc1ccc(F)c(F)c1F)C(=O)C1=NN(c2ccccc2)C(=O)CC1 has the entry 0.5
In Ecoli rRNA inh RFP, COc1ccc(S(=O)(=O)N2CCCCC2)cc1NC(=O)CCOc1cc(C)ccc1C has the entry 0.8

Continued.
SMILES	Beta apoptosis	A1 inh	Beta2AR agonist	ALR H2O2 inh	LANA-H2B inh	T cruzi inh	Calb FLC	Ecoli rRNA inh	Ecoli rRNA inh OD600	Ecoli rRNA inh RFP
c1ccc(-c2nnc3sc(CN4CCC5(CC4)OCCO5)cn23)cc1	-2	0.0	1	-1	-0.7	-15	21	1	2	-7.8
O=C(NCCCN1CCOCC1)c1ccc(-c2ccc(Cl)cc2)o1	2	0.3	-3	-5	1.3	7	6	-3	1	0.4
O=C(NCc1ccco1)C(Cc1ccccc1)N1C(=O)c2ccccc2C1=O (stereo unspecified)	-8	-0.7	-1	1	-0.2	-17	-11	nt	nt	nt
CCCCCc1nnc(NC(=O)CS(=O)(=O)Cc2ccccc2)s1	4	-0.7	4	-8	4.2	-4	2	nt	nt	nt
O=C(NC(=S)N1CCCC1)c1ccccc1	nt	-0.9	-3	-3	5.8	-21	-14	11	17	0.2
COc1ccc(C(=O)C2CCCN(C(=O)c3noc4c3CCCC4)C2)cc1F (stereo unspecified)	-1	0.2	-10	1	-4.0	-4	0	-25*	-11*	0.3*
Clc1ccccc1-c1nnc(-c2ccccc2Cl)o1	-4	-6.1	-8	-3	-2.3	0	-11	nt	nt	nt
CCN(CC)C(=O)c1ccc(COc2ccccc2Cl)cc1	2	-1.7	-4	-7	3.5	7	1	nt	nt	nt
CCn1c(OC)nc2c1c(=O)n(C)c(=O)n2C	1	1.3	-5	-11	-2.1	7	9	7	2	0.4
Nc1nonc1NN=C1CCCCC1	-3	-0.2	6	11	0.0	5	2	7	-2	0.5
COCCn1c(=O)[nH]c2cc(C(=O)NCCc3ccc(S(N)(=O)=O)cc3)ccc2c1=O	5	-1.4	-1	1	0.4	5	8	10	-1	-0.2
Cc1cnc(NC(=O)c2ccc3c(c2)C(=O)N(Cc2cccnc2)C3=O)s1	-2	0.4	-16	-11	-4.8	5	-4	nt	nt	nt
CSc1nc(=S)c2[nH]c(=S)[nH]c2[nH]1	-3	0.4	-1	99*	-0.4	-10	1	10	16	2.0
COc1ccc2oc(C(=O)OCC(=O)Nc3ccc(OC)c(S(N)(=O)=O)c3)c(C)c2c1	-2	0.5	1	-7	-1.6	-6	8	-18	-21	-5.8
O=C(C=C1CCN(c2ncc(C(F)(F)F)cc2Cl)CC1)NNC(=O)Nc1ccc(Cl)cc1	4	0.3	1	-8	-4.3	-4	-5	nt	nt	nt
Nc1ccc(CNC(=O)OCC2c3ccccc3-c3ccccc32)cc1	nt	0.0	-2	2	2.6	1	-8	-39	-51	-16
O=C(NS(=O)(=O)c1ccccc1)c1cccc(Br)c1	-4	-0.8	-3	3	-4.2	-12	nt	13	6	-1.5
CN(C)S(=O)(=O)c1ccc(Cl)c(C(=O)NC2=NCCS2)c1	-4	-0.4	-4	-7	-0.5	1	-1	7	12	-0.8
CCOC(=O)c1c(NC(=O)CCN2CCOCC2)sc(C)c1-c1ccccc1	0	-0.3	2	-1	1.6	8	-20	-45	-72	-10.0
CCC(C)NC(=O)C1CCN(S(=O)(=O)c2ccc3c(c2)CC(C)N3C(C)=O)CC1 (stereo unspecified)	-1	1.0	0	3	4.9	0	-4	4	16	0.9
O=C(CN(Cc1ccccc1F)S(=O)(=O)c1ccc(Cl)cc1)NCCC1=CCCCC1	21	0.4	-14	-12	1.4	45	-12	nt	nt	nt
Cc1ccc(OCc2cc(C(=O)N(C)CCc3ccccn3)no2)cn1	-1	?	-2	1	-0.8	-7	-12	-1	-11	-1.8
CCCNC(=O)c1nc(C)n(-c2ccc([N+](=O)[O-])cc2)n1	-11	-0.1	-3	1	3.1	2	3	15	6	-0.6
CCOc1ccccc1NC(=O)Nc1ccccn1	-7	-0.9	0	6	-1.2	0	-2	8	4	-1.2
O=C(CN1CCN(CC(=O)Nc2cccc(F)c2)CC1)Nc1ccc(-c2ccccc2)cc1	nt	0.9	-3	5	5.6	-3	4	-4	-7	2.2
CC(Sc1nc2ccccc2s1)C(=O)Nc1ccc2c(c1)OCO2 (stereo unspecified)	3	-0.4	8	-11	-2.8	12	7	nt	nt	nt
COc1ccc(S(=O)(=O)N2CCCCC2)cc1Br	1	0.2	-3	-9	-1.1	1	33	nt	nt	nt
Cc1ccc(-c2nc(CSCC(=O)NCCCN3CCOCC3)c(C)o2)cc1	-2	-0.2	1	97*	-5.1	1	-1	nt	nt	nt
Cc1nnc(SCC(=O)N2CCN(S(=O)(=O)c3ccccc3)CC2)[nH]c1=O	2	0.3	-2	-18	-6.0	-22	2	nt	nt	nt
CN(C)/C=C(\C#N)C(=O)N/N=C/c1ccc(Cl)cc1	2	-0.6	2	-12	1.7	-1	12	5	-5	-0.2

7 entries already listed, ordered by the number in ALR H2O2 inh, high to low:
molecule | Beta2AR agonist | ALR H2O2 inh | LANA-H2B inh | Ecoli rRNA inh | Ecoli rRNA inh OD600 | Ecoli rRNA inh RFP
O=C(c1cccc(C(F)(F)F)c1)N1CCOc2ccccc21 | -15 | 17 | 3.7 | 5 | 2 | 2.6
CCOc1ccccc1NC(=O)Nc1ccccn1 | 0 | 6 | -1.2 | 8 | 4 | -1.2
COc1cc(/C=C2\SC(=S)N(CCC(=O)Nc3cccc(O)c3)C2=O)cc(OC)c1OC | 31 | -1 | 15 | 2 | 14 | 1.0
O=C(Nc1ccccn1)C1CCN(c2ncnc3c2nc2n3CCCCC2)CC1 | -9 | -3 | -5.2 | -6 | -3 | 0.1
CCCCCc1nnc(NC(=O)CS(=O)(=O)Cc2ccccc2)s1 | 4 | -8 | 4.2 | nt | nt | nt
COc1ccc(S(=O)(=O)N2CCCCC2)cc1Br | -3 | -9 | -1.1 | nt | nt | nt
Cc1nnc(SCC(=O)N2CCN(S(=O)(=O)c3ccccc3)CC2)[nH]c1=O | -2 | -18 | -6.0 | nt | nt | nt

Remaining list, next part.
SMILES	Beta apoptosis	A1 inh	Beta2AR agonist	ALR H2O2 inh	LANA-H2B inh	T cruzi inh	Calb FLC	Ecoli rRNA inh	Ecoli rRNA inh OD600	Ecoli rRNA inh RFP
CCCS(=O)(=O)N1CCCC(C(=O)NCC(OC)OC)C1 (stereo unspecified)	4	1.4	7	0	-1.2	-39	-21	27	29	2.8
COc1cccc(CSc2nc(N)cc(N)n2)c1	-5	0.0	-1	-4	2.3	-7	-1	-1	-3	-0.3
CCOc1cc(CN2CCSCC2)ccc1O	0	0.7	10	31	0.7	-10	?	nt	nt	nt
CC(=O)Oc1c(C(=O)c2nnc(C)o2)c(=O)n(Cc2ccccc2)c2ccccc12	-13	0.0	6	11	1.7	1	-1	3	8	-3.2

Reformatted with bars between the fields: 2 of the compounds above
Molecule | Beta apoptosis | A1 inh | Beta2AR agonist | ALR H2O2 inh | LANA-H2B inh | T cruzi inh | Calb FLC | Ecoli rRNA inh | Ecoli rRNA inh OD600 | Ecoli rRNA inh RFP
COc1cccc(CSc2nc(N)cc(N)n2)c1 | -5 | 0.0 | -1 | -4 | 2.3 | -7 | -1 | -1 | -3 | -0.3
O=C(NC(=S)N1CCCC1)c1ccccc1 | nt | -0.9 | -3 | -3 | 5.8 | -21 | -14 | 11 | 17 | 0.2

Bioassay records as filed in PubChem.
